# Autofluor counter = compound fluorescence in toxin protease inhibitor counterscreen | compound autofluorescence counterscreen, microsphere flow cytometry; active compounds read high | actives 3.1% (n = 360,000) | fluorescence intensity (no concentration beside the values) | AID 624483;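 active means at least 3 SD above the mean of all compounds, about 16000 in these data; inconclusive means too few beads counted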;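 further: 100 nL of 1 mM stock went into each well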
# Mtb hypoxia rep = reduces hypoxia-regulated biosensor signal in M. tuberculosis. actives 0.1% (n = 300,000). fluorescence inhibition, % (test concentration not listed). M. tuberculosis hypoxia-regulated fluorescent reporter, fluorescence;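 active means 35 to 45% if threefold the growth effect, above 45% if 1.5-fold the growth effect; inactive means the rest, general growth blockers included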;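 further: wells of about 50 µL received 100 nL stock; 0% = vehicle wells and 100% = reference inhibitor wells; whole bacteria with a GFP reporter of the hypoxia response; strong numbers were not always called active; many hits fall short of the cut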
# BJeLR viability = BJeLR cell viability loss; actives 0.17% (n = 300,000); BJeLR (HRASV12) viability, CellTiter-Glo ATP luminescence, 48 h; reference of the scale not given here; inhibition, % (test concentration not listed);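 active means replicate mean above 50%; inconclusive means above 50% but judged a plate artefact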;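 further: 50 nL library stock added to about 25 µL; numbers are from one replicate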
# Sa RN4220 lethal = kills Staphylococcus aureus RN4220; inhibition, % (test concentration not listed); actives 0.33% (n = 330,000); S. aureus RN4220 growth, OD600, 16 h;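 active means z-score of -3 or lower and OD600 up to 0.18 on both plates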;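 further: plate controls were untreated cells for no effect and reference antibiotic for full effect; stock transfer was 100 nL into about 80 µL; one replicate is shown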
# PrP 5UTR inh = inhibition of PrP 5' UTR reporter expression | cell-based PrP 5' UTR mRNA reporter, plate reader | actives 0.35% (n = 340,000) | inhibition, % (concentration not given with the values);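 active means every replicate at 50% or more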;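 further: 0 = median of the neutral control wells; tested in H4 reporter cells; numbers are from one replicate; inactives centre near -14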
# Sa ugtP lethal = compounds lethal to S. aureus RN4220 ugtP deletion mutant; OD600 growth, 16 h; some inactives read as strong as hits; growth inhibition, % (concentration not given with the values); actives 0.54% (n = 330,000); AID 1259309;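 active means z-score under -3 and OD600 up to 0.15 on both plates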;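 further: plate controls were untreated wells for no effect and antibiotic for full effect; wells of about 80 µL received 100 nL stock; the first replicate is given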
# Mtb hypoxia rep growth = second read-out of Mtb hypoxia rep, no call of its own (marks repeat the call); growth inhibition, %; measured here: M. tuberculosis growth (absorbance);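 0% = vehicle and 100% = reference antibiotic; read after six days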
# * hit, by the source's call; ? = inconclusive; . = no result given; & = joins results of further samples.
SMILES,Autofluor counter,Mtb hypoxia rep,Mtb hypoxia rep growth,BJeLR viability,Sa RN4220 lethal,PrP 5UTR inh,Sa ugtP lethal
CCCCCC(=O)N/N=C/c1cc(Br)c(O)c(OC)c1,2043,.,.,12,.,-7,.
CCOC(=O)Nc1nc(C)c(C(=O)N(C)C)s1,10572,-5,14,-3,-0.9,-25,-3
Cc1cccc2nc(-c3ccco3)c(Nc3ccc4c(c3)OCO4)n12,3709,8,4,1,-0.2,-14,5
COc1ccc(Br)cc1C1CC(=O)N2CN(C)CSC2=C1C#N (stereo unspecified),6203,.,.,-16,.,-4,.
Cc1ccc(S(=O)(=O)NC(C)(C)CN2CCc3ccccc3C2)cc1,4045,3,-6,-11,0.3,-14,2
O=C(CN1CCOCC1)Nc1ccccc1F,3627,12,8,-15,1.2,-5,5
Cc1scc(C(=O)NNC(=S)NCc2ccccc2)c1C,2027,5,8,0,4.8,6,3
Cc1ccc(OCC(=O)NNC(=O)C(=O)NC(C)(C)C)cc1,2209,8,3,-5,-1.4,-14,0
Cc1ccc2nc(SCC(=O)N3CCC(Cc4ccccc4)CC3)nc(=O)n2c1,5721,8,-3,-1,5.4,-14,-3
COc1ccc(/C=N/Nc2cc(N3CCOCC3)nc(C)n2)c(OC)c1,4256,.,.,-3,.,2,.
O=C(Nc1ccc2c(c1)OCO2)C1CCN(C(=O)c2ccc([N+](=O)[O-])cc2)CC1,2432,-4,-8,0,-0.3,-10,0
COCCCNC(=O)CNC(=S)N(Cc1ccccc1F)C1CCCCC1,10981,7,8,-3,2.1,-18,6
CC(C)=NOc1nc(N2CCOCC2)nc(N2CCOCC2)n1,6108,-3,-3,3,1.6,.,3
Cc1nc2ccccc2c(=O)n1NCc1cccs1,5201,12,-4,-3,5.7,-13,18
c1ccc(C2=Nc3ccccc3NC(c3ccccc3)C2)cc1 (stereo unspecified),11594,.,.,3,0.9,-59,2
CCN(C(=O)CSc1nc2ccc(OC)cc2[nH]1)c1c(N)n(Cc2ccccc2)c(=O)[nH]c1=O,?,2,-2,-9,1.9,-6,3
COc1ccccc1-c1noc(CSc2nc(N)cc(=O)[nH]2)n1,5211,14,4,9,2.7,-28,3
Cc1ccc(C(C)(C)C)c(OCCN2CCCC2)c1,2192,1,-2,-1,1.0,-25,4
CO[C@@]1(NC(=O)CSCC#N)C(=O)N2C(C(=O)O)=C(CSc3nnnn3C)CSC21 (stereo partly specified),.,4,3,.,2.8,.,6
Cc1nc2sc(C(c3ccccc3)N3CCN(CCO)CC3)c(O)n2n1 (stereo unspecified),7002,4,5,8,-2.9,-24,0
CCc1nc2oc(C(=O)c3ccccc3)c(N)c2c2c1COC(C)(C)C2,3362,10,8,-3,-11,10,-7
Fc1ccccc1CSc1ccc(-c2ccco2)nn1,3370,6,-2,.,3.9,-81,11
COc1ccc(NC(=O)CN(C)CC(=O)Nc2cccc(F)c2)cc1S(=O)(=O)N1CCCCC1,5865,2,-2,.,3.5,10,-2
CC(=O)N1CCOc2ccc(S(=O)(=O)NCC3CCC(C(=O)NCCC(C)C)CC3)cc21 (stereo unspecified),4146,7,9,16,3.3,-3,5

# The final 2 entries of the part above open the next one:
SMILES,Autofluor counter,Mtb hypoxia rep,Mtb hypoxia rep growth,BJeLR viability,Sa RN4220 lethal,PrP 5UTR inh,Sa ugtP lethal
COc1ccc(NC(=O)CN(C)CC(=O)Nc2cccc(F)c2)cc1S(=O)(=O)N1CCCCC1,5865,2,-2,.,3.5,10,-2
CC(=O)N1CCOc2ccc(S(=O)(=O)NCC3CCC(C(=O)NCCC(C)C)CC3)cc21 (stereo unspecified),4146,7,9,16,3.3,-3,5
C[C@@H]1COC(=O)[C@@H](Cc2ccc(F)cc2)C/C=C\C[C@H](CC(=O)N(CCO)Cc2ccccc2)C(=O)N1,3807,-10,-1,.,0.6,85*,-1
COc1ccc2c(c1OC)C[N+]1([O-])CCc3cc4c(cc3C1C2)OCO4 (stereo unspecified),3742,5,4,-3,0.7,-12,-10
O=C(c1cc2ccccc2cc1O)N1CCN(c2ccccn2)CC1,5711,3,2,0,4.4,-12,5
CC(=O)C1=C(O)C(=O)N(c2cccc(C(=O)O)c2)C1c1ccc(F)cc1 (stereo unspecified),2048,-1,-2,-34,5.9,-6,6
O=C(O)c1ccc(-c2noc(-c3ccc(F)cc3)n2)cc1,4117,2,9,2,8.1,-118,8
COc1ccc(OCCCN2CCCCCC2)cc1,7624,3,11,8,-4.7,10,-10
CC(NC(=O)c1ccncc1)c1ccccc1 (stereo unspecified),3277,6,1,-5,5.3,-2,6
COc1ccc(C=NNC(=O)CNc2ccc(Br)cc2)c(C(=O)O)c1OC,.,-1,2,.,1.9,.,-1
Cc1cc(=O)oc2c3c(cc(OCC(=O)Nc4cccnc4)c12)OC(C)(C)CC3,5571,.,.,-6,3.8,-15,-14
Cc1ccc(N(C(C)C(=O)Nc2cc(Cl)ccc2Oc2ccccc2)S(C)(=O)=O)cc1 (stereo unspecified),5927,8,15,-6,2.6,-7,-9
CS(=O)(=O)c1ccc(Cl)c(NC(=O)CSC(=S)N2CCCC2)c1,4169,7,-3,-4,3.5,-9,7
COc1ccc(Cl)cc1NC(=O)N1CCN(C2CCCCC2)CC1,20816*,-10,5,2,-0.4,-5,1
O=C1OCCN1C(=O)[C@H]1[C@H](c2ccc([N+](=O)[O-])cc2)C(c2cccc(Cl)c2)=NN1c1ccc(Br)cc1,3225,2,1,.,-4.1,-28,-9
O=C(NCCCCc1ccccc1)C1CC(c2ccccc2[N+](=O)[O-])=NO1 (stereo unspecified),4059,1,5,-5,5.0,-27,5
O=C(CCC(=O)N1CCOCC1)c1ccc(F)cc1,3982,11,8,15,-2.5,-33,-3
COc1ccc(CNC(=O)CN(c2ccccc2)S(=O)(=O)N(C)C)cc1,3261,4,2,-21,4.5,-15,1
CCN(CC(=O)NCc1ccc(Cl)cc1)C(=O)CSc1ccc(Br)cc1,5723,13,8,1,-7.1,-16,-1
COc1ccccc1NC(=O)CN1CCC(C(=O)c2ccc(F)cc2)CC1,9475,9,11,-15,3.2,-24,2
Cc1cc(C(=O)COC(=O)CN(C)S(=O)(=O)c2ccc(Cl)cc2)c(C)n1Cc1cccs1,3160,2,5,4,8.9,-27,8
Cc1ccc(C(=O)N(Cc2nc3ccccc3c(=O)[nH]2)C2CCCC2)cc1,4403,6,3,1,6.8,-37,-5
CCC12CN3CCN(CC(C3)C1=NNC(=O)c1ccncc1)C2,.,.,.,.,-0.6,.,-1
O=C1N(c2ccc(Cl)cc2)C(c2ccc(Cl)cc2)N2CCCN12 (stereo unspecified),2075,5,5,-1,1.5,-13,-8
CC(C)Cc1nnc(NC(=O)CN2C(=O)c3ccccc3C2=O)s1,3424,9,4,-6,2.9,-39,3
O=C(Nc1ccc(F)cc1)C1CCN(C(=O)NCc2ccccc2)CC1,2927,9,1,4,5.5,0,7
O=C(c1ccc(N2CCCC2=O)cc1)N1CCOCC1,4060,.,.,0,-1.8,-7,0
CCc1ccc(C(=O)NN(C(=O)c2ccc(CC)cc2)C(C)(C)C)cc1,9299,-1,-4,-6,-6.9,-6,4
CCN1CCN(Cc2ccc(NC(=O)c3ccc(C)c(NC(=O)c4ccno4)c3)cc2C(F)(F)F)CC1,3956&3399,8,10,9,0.7,21,-2
O=C(Nn1c(SCc2cccc([N+](=O)[O-])c2)nc2ccccc2c1=O)c1ccccc1,11333,9,3,-3,29,-44,-14
C(=C\c1nnc(-c2cccs2)o1)/c1ccccc1,6514,12,15,-3,14,-109,3
O=c1ccn(Cc2ccccc2Cl)cc1,9553,10,4,-9,4.1,-29,14
COc1ccccc1CNC(=O)C(=O)NCC1OCCN1S(=O)(=O)c1ccc2c(c1)OCCO2 (stereo unspecified),5700,-6,-2,6,7.3,-34,-4
CN(CC(=O)NCc1ccccn1)S(=O)(=O)c1ccccc1,11028,7,4,0,3.7,-33,3
COCc1c(C(=O)N/N=C(/C)c2ccc(OCc3ccccc3)cc2)nnn1-c1nonc1N,5122,.,.,0,.,-42,.
CC(C)(C)n1nnnc1C(c1cccc(C#N)c1)N1CCCCCC1 (stereo unspecified),3618,0,-2,7,5.0,-1,10
COCCN(C(=O)CSc1nnc(-c2cccc(C)c2)n1C)c1c(N)n(Cc2ccccc2)c(=O)[nH]c1=O,4215,-19,7,.,0.2,-6,-6
Cc1ccc(NC(=O)CNC(=O)c2cccs2)nc1,.,3,0,-4,2.2,-26,8

# Filtered by structure: the entries above with two or more sulfur atoms
SMILES,Autofluor counter,Mtb hypoxia rep,Mtb hypoxia rep growth,BJeLR viability,Sa RN4220 lethal,PrP 5UTR inh,Sa ugtP lethal
Cc1scc(C(=O)NNC(=S)NCc2ccccc2)c1C,2027,5,8,0,4.8,6,3
CO[C@@]1(NC(=O)CSCC#N)C(=O)N2C(C(=O)O)=C(CSc3nnnn3C)CSC21 (stereo partly specified),.,4,3,.,2.8,.,6
CS(=O)(=O)c1ccc(Cl)c(NC(=O)CSC(=S)N2CCCC2)c1,4169,7,-3,-4,3.5,-9,7
Cc1cc(C(=O)COC(=O)CN(C)S(=O)(=O)c2ccc(Cl)cc2)c(C)n1Cc1cccs1,3160,2,5,4,8.9,-27,8

# Further structures follow:
SMILES,Autofluor counter,Mtb hypoxia rep,Mtb hypoxia rep growth,BJeLR viability,Sa RN4220 lethal,PrP 5UTR inh,Sa ugtP lethal
O=C(O)CN1C(=O)C(=O)N(Cc2cccc(F)c2)C1=O,3766,-8,-6,5,-0.5,-29,-1
N#Cc1ccc(C23CC4(C2)C(CN(Cc2cccnc2)C4c2ccccc2)C3c2ccccc2)cc1 (stereo unspecified),.,3,14,.,-7.8,.,17
CCOP(=O)(OCC)C(O)c1ccc2c(c1)OCO2 (stereo unspecified),6014,5,-1,-2,-0.5,-5,3
COc1ccc(OC)c(C(c2nnnn2CC2CCCO2)N2CCN(C)CC2)c1 (stereo unspecified),3671,.,.,-11,7.3,7,8
O=c1cc(CO)oc(CN2CCN(CCO)CC2)c1O,?,4,-2,2,0.9,-11,10
CC(CCN1CCN=C1N(C)C)c1ccccc1 (stereo unspecified),3224,4,10,.,1.4,-14,1
CC(C)CNC(=O)CC(=O)N/N=C/c1cccs1,2062,.,.,5,.,-8,.
COc1ccc(C(=O)N/C(=C\c2cn(S(=O)(=O)N(C)C)c3ccccc23)C(=O)N2CCN(C)CC2)cc1,5499,3,0,-10,5.1,-16,7
CC[C@@]1(C(=O)OC)N[C@H](CN(C)S(=O)(=O)c2ccc(C(C)(C)C)cc2)[C@@H]2C(=O)N(Cc3ccccc3)C(=O)[C@@H]21,3018,-11,3,.,8.5,-4,6
CC[C@H](C)C(C(=O)N1CCN(C(=O)OC(C)(C)C)CC1)n1cc(C(CO)NC(=O)OC(C)(C)C)nn1 (stereo partly specified),3378,.,.,-2,.,-8,.
Cc1ccc(-c2ccccc2)n1-c1cccc(C(=O)O)c1,5296,13,5,-3,13,-42,6
CC(C)NC(=O)c1ccc(Sc2ccccc2)c([N+](=O)[O-])c1,2187,.,.,3,2.7,-2,1
O=C(O)C1CCCN(S(=O)(=O)c2cccc3cccnc23)C1 (stereo unspecified),4095,14,9,-8,6.6&5.2,-3,1&6
NC(=O)CN1CCCN(S(=O)(=O)c2ccc(Br)cc2)CC1,4933,.,.,9,1.3,-36,3
CCSc1nnc(NC(=O)c2cc(C)on2)s1,11082,0,6,1,5.1,4,-4
O=C(Cn1cccn1)c1ccccc1,4122,13,10,7,-1.7,-32,1
CCN(/N=C/c1ccc(Cl)cc1)c1cc(=O)n(C)c(=O)[nH]1,3440,.,.,7,.,-8,.
Cc1cccc(C(=O)NN=Cc2ccoc2)c1,.,4,0,.,2.5,.,-3
CCCNC(=O)c1cccc(Cn2nc(C)c(Br)c2C)c1,4647,.,.,10,2.5,-1,-1
CN(C)CCC(=O)c1ccc2c(c1)OCO2,8313,8,5,10,3.0,-10,6
Cn1cnc2c1c(=O)n(Cc1c(Cl)cccc1Cl)c(=O)n2C,.,7,6,-2,3.3,-12,11
COc1ccc(-c2[nH]ncc2/C=C(/C#N)C(=O)NC2CCCCCC2)cc1,4614,6,8,9,7.0,10,-5
O=C(CSc1ccc([N+](=O)[O-])cn1)Nc1cc(C(F)(F)F)ccc1N1CCOCC1,5936,0,10,9,0.7,-5,-15
O=C(CN1CCN(Cc2ccccc2F)C1=O)NCCN1CCOCC1,5703,-5,11,10,-2.1,-21,-6
Cc1ccc(NC(=O)CSc2nnc(-c3ccco3)c(-c3ccco3)n2)cc1,2996,3,3,24,9.6,-36,3
CC(=O)N=Cc1c(C)c(C#N)c(=O)n(C)c1O,4678,2,16,-4,4.9,-34,4

# From PubChem BioAssay
